High-throughput results from PubChem.
HSV replic up: enhancers of HSV replication in host cells, fold increase, host cell viability; HSV replication augmentation in cells; maximum fold increase; 0.005% of 220,000 active;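 active = peak rise of 1.5-fold or more in the series; inconclusive = self-fluorescent or not available for retest; tested in PC3 cells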;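 also: first round at 10 µM; read as green reporter fluorescence; hits show the peak of a series up to 25 µM; 1 = signal of infected wells without compound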
Insulin prom inh: inhibitors of insulin promoter-driven GFP, primary screen, imaging, TRM-6 cells (human fetal islet line), eGFP reporter, cell count; reporter expression induced with tamoxifen; inhibition, % at 2 µM; 0.9% of 130,000 active;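 active = inhibition above the mean plus 3 SD, with well images judged a real hit on visual review, cut at about 60% in these data, passing the limit was not always enough; inconclusive = inhibition over the cutoff but images rejected on review; inactive = inhibition not above the cutoff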
PKD1 inh: inhibitors of human PKD1 kinase, biochemical, fluorescence polarization; Serine/threonine-protein kinase D1 (Homo sapiens), Q15139; PKD1 kinase fluorescence polarization assay; inhibition, %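 (about 10 µM by stock and volumes)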; 0.056% of 200,000 active; AID 797, 2007;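 active = inhibition of 50% or more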;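 also: controls were vehicle for no effect and a reference inhibitor for full effect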
Target sequence (Q15139 whole entry, looked up): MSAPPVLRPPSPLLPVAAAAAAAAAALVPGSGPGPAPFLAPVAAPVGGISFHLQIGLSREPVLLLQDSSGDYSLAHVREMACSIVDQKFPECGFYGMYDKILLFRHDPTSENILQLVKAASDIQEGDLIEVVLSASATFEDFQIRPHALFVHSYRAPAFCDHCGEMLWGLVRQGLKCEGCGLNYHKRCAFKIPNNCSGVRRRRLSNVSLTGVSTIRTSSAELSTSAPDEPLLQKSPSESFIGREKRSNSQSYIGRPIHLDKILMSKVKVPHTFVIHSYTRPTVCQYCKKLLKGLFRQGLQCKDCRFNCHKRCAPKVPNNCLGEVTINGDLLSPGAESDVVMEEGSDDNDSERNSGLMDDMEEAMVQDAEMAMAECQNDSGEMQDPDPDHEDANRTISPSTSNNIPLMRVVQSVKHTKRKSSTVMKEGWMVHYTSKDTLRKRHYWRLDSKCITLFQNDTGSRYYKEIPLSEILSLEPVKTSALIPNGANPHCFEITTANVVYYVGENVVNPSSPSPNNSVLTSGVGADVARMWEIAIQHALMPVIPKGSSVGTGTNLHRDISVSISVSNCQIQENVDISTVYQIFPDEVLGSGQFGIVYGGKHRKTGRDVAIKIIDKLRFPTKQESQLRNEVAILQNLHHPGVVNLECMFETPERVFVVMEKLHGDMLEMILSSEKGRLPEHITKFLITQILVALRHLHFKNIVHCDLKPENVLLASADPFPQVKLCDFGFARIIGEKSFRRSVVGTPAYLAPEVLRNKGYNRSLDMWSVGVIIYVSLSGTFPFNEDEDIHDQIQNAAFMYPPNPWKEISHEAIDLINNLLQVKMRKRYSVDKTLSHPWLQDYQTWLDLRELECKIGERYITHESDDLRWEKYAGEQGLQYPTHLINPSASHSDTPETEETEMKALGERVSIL
GALR2 ag: GALR2 receptor agonists, primary screen, cell-based. activation, %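 (tested at 5 µM)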. GALR2-expressing cells, agonist activation read-out. AID 803, 2007. Galanin receptor type 2 (Homo sapiens), O43603. 0.48% of 140,000 active;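 active = above mean plus 3 SD of all compounds, about 5% in these data, not always enough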;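 also: 0% = vehicle buffer wells and 100% = reference agonist at full effect; tested in CHO reporter cells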
RGS16-Gao HTS: modulators of RGS16 binding to Galphao, primary screen, biochemical, human proteins, multiplexed bead flow cytometry; Regulator of G-protein signaling 16 (Homo sapiens) + Guanine nucleotide-binding protein …; bead-based flow cytometry RGS16-Galphao binding, fluorescence; actives lie on both sides; binding response (% of control), % at 10 µM; 0.38% of 220,000 active;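 active = below 25% or above 175%, edge rows of some plates excepted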;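 also: Galphao activated by GDP with aluminum fluoride before binding; 100% = wells without compound and 0% = beads without RGS; some results beyond the cut were filed as inactive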
Insulin prom inh cell count: further read-out of Insulin prom inh, marked with its call; normalized cell count, %; measured here: cell count, toxicity; reference of the scale not given here;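 cells exposed to compound for 48 h; stained nuclei by imaging scaled within each plate; lower means fewer cells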
HSV replic up primary fold: recorded beside HSV replic up, whose call it bears; fold increase; compound at 10 µM; measured here: primary screen fold increase 10 uM; tested in PC3 cells;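 GFP signal in the first replicate; 1 = infected wells without compound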
Numbers without * were called inactive; i = inactive; u = inconclusive; x = no result given.

SMILES	HSV replic up	HSV replic up primary fold	Insulin prom inh	Insulin prom inh cell count	PKD1 inh	GALR2 ag	RGS16-Gao HTS
CCOc1ccc(-n2cnnn2)cc1S(=O)(=O)NCCc1ccc(OC)c(OC)c1	i	1.1	-32	54	4	-2.8	114
CN1CCC(Oc2ccc(Sc3ccccc3)cc2)CC1	i	0.66	-31	113	-2	-1.6	111
O=C1C2C3c4ccccc4C(c4ccccc43)C2c2nc3ccccc3n21 (stereo not drawn)	i	0.99	8	153	-3	-2.4	107
CCOc1ccc(N2CC(C(=O)Nc3ccc4c(c3)OCO4)CC2=O)cc1 (stereo not drawn)	i	0.89	-82	112	-3	x	120
Cc1ccc(S(=O)(=O)NC(N)=NCCc2ccc(Cl)cc2)cc1C	i	0.77	0	91	-8	-0.6	98
Brc1ccc2ncnc(Nc3ccc(N4CCOCC4)cc3)c2c1	i	0.68	5	177	-19	-2.6	93
CCN(CC)S(=O)(=O)c1cccc(C(=O)N[C@H](C(=O)OCC(=O)Nc2ccccc2)C(C)C)c1	i	0.98	39	131	-2	0.0	96
CCCn1c(SCc2ccccn2)nc2c1c(=O)n(C)c(=O)n2C	i	0.87	x	x	-8	-0.6	-29
COc1ccc(S(=O)(=O)N2CCC(C(=O)N3CCc4ccccc4C3)CC2)cc1Cl	i	0.98	14	116	6	-3.0	102
CC1CCN(C(=O)CN2C(=O)c3ccccc3S2(=O)=O)CC1	i	1	x	x	2	-3.6	97
CCOC(=O)C1(C)NC(c2ccccc2F)C2C(=O)N(CC)C(=O)C21 (stereo not drawn)	i	1.1	x	x	-3	x	101
CCNC(=S)Nc1ccc(N2CCCCC2)cc1	i	0.96	21	124	5	x	103
COc1ccc(NC(=S)N(CCC(C)C)C(C)c2ccncc2)cc1 (stereo not drawn)	i	0.89	x	x	x	x	92
N#Cc1ccc(OCCN2C(=O)NC3(CCSC3)C2=O)cc1 (stereo not drawn)	i	0.58	23	142	8	-2.8	98
COc1ccc(C(=O)N2CCN(C(=O)c3ccco3)CC2)cc1	i	0.92	15	129	-5	-1.4	97
Cc1cccc(NC(=S)N2CCC(N(C)CC3CCCO3)CC2)c1C (stereo not drawn)	i	0.87	-28	185	-16	-2.2	102
O=C1C(C=NCc2ccncc2)=C(O)c2ccccc21	i	1	-39	91	-2	-2.6	103
COc1ccc(/C=C/C(=O)c2ccccc2)cc1COc1ccccc1F	i	0.71	43	160	3	-1.5	107
COc1ccccc1-n1cnc2cc(NS(=O)(=O)c3ccc(Br)cc3)ccc21	i	0.69	-14	158	-2	-1.4	104
CCOC(=O)c1cc(C(=O)c2ccccc2O)cn2c(=O)c3c(C)c(C)sc3nc12	u	x	x	x	0	x	96
CC1CCCN(C(=O)CSc2nc3ncccc3[nH]2)C1 (stereo not drawn)	i	0.91	x	x	0	x	96
COc1ccc(CC2(CO)CCN(Cc3cnn(-c4ccc(F)cc4)c3)CC2)cc1	i	0.98	x	x	6	x	103
O=C(O)C1Cc2ccccc2CN1C(=O)c1ccccc1Cl (stereo not drawn)	i	0.99	29	146	9	-2.0	102
Cc1ccc(C(=O)CSc2nnc(N)s2)c(C)c1	i	1	-63	121	-2	x	97
COc1cc(-c2noc(-c3ccco3)n2)cc(OC)c1OC	i	0.89	x	x	-13	-1.4	95
CCC(C)(C)n1nnnc1C(c1ccc2ncccc2c1)N1CCCC(C)C1 (stereo not drawn)	i	1	-81	160	0	-0.6	111
CCC(C)NC(=O)CNC(=S)N(Cc1ccc(F)cc1)C1CCCCC1 (stereo not drawn)	i	0.96	-11	154	0	x	101
O=C(NCCCn1ccnc1)Nc1ccc(Cl)c(Cl)c1	i	0.74	-27	97	-2	-2.2	101
c1ccc(-c2csc3ncnc(-n4cnc5ccccc54)c23)cc1	i	1	x	x	5	-2.7	105
COC(=O)c1ccc(CSc2nc3ccccc3c(=O)n2-c2ccc(OC)c(OC)c2)o1	i	0.94	40	101	-1	-0.8	101

Some of these compounds in order of the HSV replic up primary fold value, low to high.
SMILES,HSV replic up primary fold,PKD1 inh,GALR2 ag,RGS16-Gao HTS
COc1ccccc1-n1cnc2cc(NS(=O)(=O)c3ccc(Br)cc3)ccc21,0.69,-2,-1.4,104
COc1cc(-c2noc(-c3ccco3)n2)cc(OC)c1OC,0.89,-13,-1.4,95
CCC(C)(C)n1nnnc1C(c1ccc2ncccc2c1)N1CCCC(C)C1 (stereo not drawn),1,0,-0.6,111

Additional results.
SMILES	HSV replic up	HSV replic up primary fold	Insulin prom inh	Insulin prom inh cell count	PKD1 inh	GALR2 ag	RGS16-Gao HTS
CC(C)NC(=O)CC(=O)N/N=C/c1ccccc1F	i	1	-11	74	-1	-4.7	96
O=C(CSc1cn(CCNC(=O)c2ccc3ccccc3c2)c2ccccc12)NCc1ccco1	i	0.69	x	x	-10	-1.0	107
CCOCCCNC(=O)c1c(C)[nH]c(C(=O)OCC)c1C	x	x	x	x	-5	-2.6	99
COc1ccc(NC(=O)C2CCC(=O)N2)cc1 (stereo not drawn)	i	1.2	21	98	-10	-2.2	106
COc1ccc(-c2oc3cc(O)c(OC)c(O)c3c(=O)c2OC)cc1	i	0.66	x	x	x	x	102
CC1CCN(S(=O)(=O)c2ccc3ccccc3c2)CC1	i	0.97	11	86	3	0.5	104
S=c1[nH]nc(-c2ccc3ccccc3n2)n1-c1ccccc1Cl	i	1.1	25	99	3	-1.1	92
c1cc2c(cc1C1CCCN1)OCCCO2 (stereo not drawn)	i	1	-14	80	-1	0.0	98
CCCN1C2CCCC1CC(NC(=S)NCCCOCC)C2 (stereo not drawn)	i	0.84	x	x	7	x	106
CCNC(=S)NNC(=O)c1cc(Br)cs1	i	0.97	-100	86	-10	-0.1	62
CC(C)(C)NC(=O)NCCc1ccccc1	i	1	x	x	x	x	106
COc1ccc(N(CC(=O)NC2CCCCCC2)S(=O)(=O)c2c(C)nn(C)c2C)cc1	i	0.99	x	x	-4	-0.1	98
Cc1ccc2nc(Cl)c(C#N)cc2c1	i	0.92	53	127	-3	x	112
CC1CC(OCC(O)C[N+]2(C)CCOCC2)CC(C)(C)C1 (stereo not drawn)	i	0.96	-82	109	-5	x	17*
COc1ccc(N/C(=N/c2nc(C)cc(C)n2)NC(=O)Nc2ccc(Cl)c(Cl)c2)c(OC)c1	i	1	-3	40	-8	2.0	107
COC(=O)c1ccc(NC(=S)NC(=O)c2c(-c3ccccc3)noc2C)cc1	i	0.97	x	x	x	x	96
Cc1cc(C)c(NC(=O)Cn2c([N+](=O)[O-])cnc2C)c(C)c1	i	1.1	x	x	x	x	103
CCCCN(C)CCC(=O)Nc1ccc(F)c(F)c1	i	0.93	-17	112	-6	0.6	102
Oc1ccc(Cn2ccnc2)c2cccnc12	i	0.83	x	x	-5	x	102
CC(=O)OCC12COC3c4ccccc4OC(C)(CC1C)C3C2C (stereo not drawn)	i	1	-69	78	-2	x	104
Cc1c(C)[n+](=O)c(-c2cccs2)c(C)n1[O-]	i	1	-37	197	-15	-4.3	67
O=S(=O)(Nc1ccc2c(c1)OCCO2)c1cnc[nH]1	i	0.98	x	x	-6	-0.4	109
CCOc1cc(/C=C/c2ccc3cccc([N+](=O)[O-])c3n2)cc(Cl)c1O	i	0.91	21	93	6	-1.5	101
O=S(=O)(c1ccc2ccccc2c1)N1CCN(C2CCN(Cc3ccccc3)CC2)CC1	i	0.78	x	x	-6	-2.3	105
O=C(/C=C/c1c(Cl)nc2ccccn12)N1CCCCC1	i	1.2	x	x	-6	x	101
NC(=S)N=Nc1c(O)[nH]c2cc(F)c(F)cc12	i	1.1	x	x	-12	-1.3	116
COc1ccc(S(=O)(=O)n2nc(OC(=O)c3cccs3)cc2N)cc1	i	0.92	14	68	-4	-3.6	85
COc1ccc(C(=O)Nc2ccc(CN3CCS(=O)(=O)CC3)cc2)cc1	i	0.98	x	x	x	x	100
COC(=O)C1(C(F)(F)F)N=C(C(F)(F)F)Nc2ccc(Cl)cc21 (stereo not drawn)	i	1.1	-43	100	-9	-1.1	114
Cc1ccc(CNC(=O)C2CNc3cc(C)ccc3O2)cc1 (stereo not drawn)	i	0.96	-31	97	-6	-1.3	104
O=C(NCc1nnc(SCc2ccccc2)n1-c1ccccc1)C12CC3CC(CC(C3)C1)C2	x	x	x	x	0	-0.6	106
CCOCc1cnc(C)nc1NCC(=O)c1c(C)[nH]c2ccccc12	i	1.1	0	199	-6	-0.6	91
O=C(NCc1cccnc1)c1ccc(Cl)c(S(=O)(=O)N2CCCCCC2)c1	i	0.93	-89	103	1	x	96
CS(=O)(=O)N1CC(C(=O)O)Oc2ccc(CC(=O)O)cc21 (stereo not drawn)	i	1.1	x	x	-3	x	101
CN1CCN(CCCNC(=O)c2cn(C3CCCCC3)c(=O)c3c2c2ccccc2n3C)CC1	i	0.77	3	95	-2	-0.9	99
CN(C)C(=O)COC(=O)c1ccccc1NC(=O)c1ccco1	i	1	-17	81	1	x	84
O=C(c1cc2c(cc1Br)OCCCO2)N1CCCCC1	i	1	-4	119	-2	-1.1	46
N#C/C(=C\c1ccc(F)c(Cl)c1)S(=O)(=O)c1ccccn1	i	0.94	x	x	x	x	101
NS(=O)(=O)c1ccc(NC(=O)CSc2nnc(Cc3cccs3)n2-c2ccccc2)cc1	i	1	-6	60	2	0.0	98
CC(C)OC(=O)c1cc2ccccc2oc1=O	i	0.69	x	x	-18	-0.3	101
CN(C(=O)COC(=O)c1ccccc1Nc1ccccc1)C1CCS(=O)(=O)C1 (stereo not drawn)	i	1.2	x	x	-10	-0.3	102
CCOC(=O)CCN(Cc1sccc1C)S(=O)(=O)c1ccc(F)cc1	i	0.99	-77	115	-5	-0.7	154
COc1ccccc1NC(=O)CCC(=O)OCc1ccc([N+](=O)[O-])cc1	u	x	x	x	-1	x	99
CC(=O)Nc1ccc(/C=N/NC(=O)c2cc3ccccc3nc2C)cc1	i	1	0	128	-8	-0.7	107
Cc1[nH][nH]c(=O)c1/C=N/N1CCOCC1	i	1	x	x	2	x	97
CC(=O)Nc1c(O)[nH]c2ccccc12	i	1.1	-38	120	-5	-3.4	100
Cn1nc(-c2ccccc2)cc1NS(=O)(=O)c1ccccc1	i	1	x	x	x	x	97
O=C(N/N=C/c1coc2ccccc2c1=O)c1cn(-c2ccccc2)nc1-c1ccccc1	i	0.87	x	x	-2	-0.3	40
CCCCCC(O)c1cccc(OCc2ccc3ccccc3n2)c1 (stereo not drawn)	i	0.98	0	68	-4	-0.8	103
OCCN(Cc1ccccc1)CC1CC=CCC1 (stereo not drawn)	i	1.2	30	89	-6	-0.5	104
COc1ccc(C(=O)NCc2ccc3c(c2)OCO3)cc1	i	1	x	x	-4	x	105
O=C(NCCOc1ccccc1)c1cncc(Br)c1	i	1	22	121	8	-1.8	101
Clc1ccc(-c2csc(-c3cccnc3)n2)s1	i	1	x	x	x	x	102
O=S(=O)(Nc1cccc2[nH]ncc12)c1cccs1	i	1.2	x	x	1	x	101
O=c1c(N2CCOCC2)nsn1Cc1ccccc1	x	x	-34	98	-8	-3.8	93
CN(CCC#N)C(=S)Nc1ccc(Oc2ccccc2)cc1	i	0.89	-30	146	2	0.7	103
COc1ccc(S(=O)(=O)N2CCOCC2)cc1NC(=O)c1ccc(-n2nc(C)cc2C)cc1	i	0.96	x	x	x	x	102
O=C1C2C3C=CC(CC3)C2C(=O)N1/N=C/c1ccco1 (stereo not drawn)	i	1	-14	75	-4	x	105
O=C1CC(N2CCN(c3ncccn3)CC2)C(=O)N1CCc1ccccc1 (stereo not drawn)	i	0.98	-37	70	6	x	103
CC(C)c1ccc(C(O)c2cnc(C(C)C)n2C)cc1 (stereo not drawn)	i	0.86	x	x	7	-1.8	110

5 structures already listed, sorted by molar mass, descending:
SMILES	HSV replic up	HSV replic up primary fold	Insulin prom inh	Insulin prom inh cell count	PKD1 inh	GALR2 ag	RGS16-Gao HTS
O=C(N/N=C/c1coc2ccccc2c1=O)c1cn(-c2ccccc2)nc1-c1ccccc1	i	0.87	x	x	-2	-0.3	40
O=C1CC(N2CCN(c3ncccn3)CC2)C(=O)N1CCc1ccccc1 (stereo not drawn)	i	0.98	-37	70	6	x	103
Cn1nc(-c2ccccc2)cc1NS(=O)(=O)c1ccccc1	i	1	x	x	x	x	97
COc1ccc(C(=O)NCc2ccc3c(c2)OCO3)cc1	i	1	x	x	-4	x	105
CC(C)c1ccc(C(O)c2cnc(C(C)C)n2C)cc1 (stereo not drawn)	i	0.86	x	x	7	-1.8	110
